Assay outcomes (PubChem BioAssay)
NS1 inh = blocks influenza NS1 protein function; 0.4% of 270,000 active; S. cerevisiae slowed by influenza A NS1, growth recovery by OD600; Potency, µM (doses to about 46.1 µM), inactives show top-dose activity, positive = more growth; further: actives are rising curves; nearly all actives have a fitted effect of over 50% in size
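OD600 was taken as the measure of yeast growth restored by compound in an NS1-expressing S. cerevisiae strain. Cells had been washed out of glucose medium and diluted 1:100 into galactose -URA medium, pH 6.0.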
LASV entry inh = inhibitors of Lassa virus binding or cell entry. Lassa virus pseudotype entry inhibition, cell reporter; control for the full effect not named in the record. 1.2% of 300,000 active. AID 540256. Potency, µM (doses to about 37.9 µM), inactives show at the highest dose activity change, negative = inhibition, hits mostly inhibitors; active means well fitted inhibition curve with a large enough effect; inconclusive means small, poorly fitted or top-dose-only effect, or effect the other way; inactive means flat fitted curve, though single readings scatter; tested in HEK293 cells; further: on the % scale 0 is the no-effect control and ±100 the full control effect; nearly all actives have a fitted effect of over 50% in size; luciferase read-out
Cruzain Triton = inhibitors of Trypanosoma cruzi cruzain with detergent; P25779; purified cruzain, Z-FR-AMC fluorescence, 0.01% Triton; Potency, µM, for inactives: max response, negative = inhibition, usual class: inhibitors; 0.43% of 200,000 active; AID 1478; active means well fitted curve in the direction sought with a large enough effect; inconclusive means small, poorly fitted or top-dose-only effect, or another doubt; inactive means no such curve, though single readings can be large; an effect the other way counts as inactive or inconclusive;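 further: plate controls were neutral wells for no effect and buffer without enzyme for full effect; nearly all actives have a fitted effect of over 40% in size; top concentration of the series not given in the record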
Target sequence (P25779 123-467 limits assumed): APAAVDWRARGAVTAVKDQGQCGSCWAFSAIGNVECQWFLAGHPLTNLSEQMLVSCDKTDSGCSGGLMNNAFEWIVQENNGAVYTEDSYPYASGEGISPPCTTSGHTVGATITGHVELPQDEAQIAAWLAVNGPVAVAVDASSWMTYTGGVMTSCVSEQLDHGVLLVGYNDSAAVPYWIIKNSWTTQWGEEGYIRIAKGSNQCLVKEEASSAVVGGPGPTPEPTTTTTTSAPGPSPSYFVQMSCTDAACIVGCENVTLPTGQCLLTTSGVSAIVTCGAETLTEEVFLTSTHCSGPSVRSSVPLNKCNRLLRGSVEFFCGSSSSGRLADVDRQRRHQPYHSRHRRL
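Purified cruzain (1.5 nM final) was preincubated with compounds for 15 min at room temperature in 100 mM sodium acetate pH 5.5, 5 mM DTT, 0.01% Triton X-100. Reaction started with 2 uM Z-FR-AMC; AMC fluorescence change over 60 s gave activity.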
SARS PLpro yeast = SARS-CoV PLP inhibition in yeast; S. cerevisiae expressing SARS-CoV PLpro, growth rescue; control for the full effect not named in the record; Potency, µM (top dose mostly 32.9 µM), without a hit: at the highest dose activity, positive = growth rescue; 0.19% of 330,000 active; further: 0% is about no effect; nearly all actives have a fitted effect of over 55% in size; growth read by luminescence after 48 h
Cruzain inh noDet = blocks cruzain activity in detergent-free assay. P25779. purified cruzain, Z-FR-AMC fluorescence, no detergent. Potency, µM, without a hit: max response, negative = inhibition, most hits filed as inhibitors. 2.3% of 200,000 active; active means well fitted curve in the direction sought with a large enough effect; inconclusive means small, poorly fitted or top-dose-only effect, or another doubt; inactive means no such curve, though single readings can be large; an effect the other way counts as inactive or inconclusive;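 further: plate controls were enzyme without inhibitor for no effect and buffer without enzyme for full effect; nearly all actives have a fitted effect of over 40% in size; top concentration of the series not given in the record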
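Detergent-free condition (0.00005% Triton X-100) in acetate buffer pH 5.5 with DTT. 1.5 nM enzyme and compound were pre-mixed 15 min, then 2 uM Z-FR-AMC substrate added; reaction progress from fluorescence change between first and third reads (60 s).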
RE007 growth inh = less growth of the S. pombe RE007 Vpr strain; Potency, µM (doses to about 92.2 µM), for the others: top-dose activity change, negative = less growth; S. pombe RE007 Vpr strain, BacTiter-Glo ATP luminescence, 24 h; control for the full effect not named in the record; 0.21% of 360,000 active; active = well fitted falling curve with a large enough effect; inconclusive = small, poorly fitted or top-dose-only effect; inactive = no such curve, though single readings can be large or run the other way;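 further: on the % scale 0 is the no-effect control and ±100 the full control effect; nearly all actives have a fitted effect of over 50% in size; the assay follows cell death caused by Vpr and the record does not say whether a fall means rescue or toxicity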
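Fission yeast strain RE007, carrying one chromosomally integrated HIV-1 vpr copy, was seeded at OD 0.01 in PMG+AL medium with 23 nL pinned compound. After 24 h at 30 °C and 99% humidity, viability was read by BacTiter-Glo luminescence.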
StopGo reporter = lowers the luciferase signal of an FMDV 2A StopGo reporter; AID 1159524; human cells with a luciferase reporter of 2A StopGo recoding; control for the full effect not named in the record; Potency, µM (series often up to 57.9 µM), for the others: top-dose signal change, negative = less light; 1.2% of 410,000 active; active = well fitted falling curve with a large enough effect; inconclusive = small, poorly fitted or top-dose-only effect; inactive = no such curve, though single readings can be large or run the other way; tested in HEK293T cells; further: on the % scale 0 is the no-effect control and ±100 the full control effect; nearly all actives have a fitted effect of over 45% in size; luciferase light after 4 h
MARV entry inh = Marburg virus entry inhibition; Marburg virus pseudotyped entry inhibition, cell reporter; control for the full effect not named in the record; about a third of the inactives were read at about 46 µM; Potency, µM (series often up to 37.8 µM), for inactives: top-dose activity change, negative = inhibition, hits mostly inhibitors; 1.8% of 300,000 active; AID 540276; active = well fitted inhibition curve with a large enough effect; inconclusive = small, poorly fitted or top-dose-only effect, or effect the other way; inactive = flat fitted curve, though single readings scatter; tested in HEK293 cells; about a fifth of its hits are not listed in these tables; further: on the % scale 0 is the no-effect control and ±100 the full control effect; luciferase read-out
The depositor's hits bear a star; ? = inconclusive; / = no result given; & = joins results of further samples; [ ] = another dose, or the depositor's remark. Unless noted, the call rests on the fitted dose curve; in most records, active means well fitted rising curve with a large enough effect; inconclusive means small, poorly fitted or top-dose-only effect; inactive means no such curve, though single readings can be large or run the other way. Potency means the concentration at half of the fitted maximal effect.

SMILES	NS1 inh	LASV entry inh	Cruzain Triton	SARS PLpro yeast	Cruzain inh noDet	RE007 growth inh	StopGo reporter	MARV entry inh
Cc1ccc(-c2noc(CC(=O)c3ccc([N+](=O)[O-])cc3)n2)cc1	/	20%	/	/	/	1%	-25%	8%
CCCc1cnc(N2CCN(C(=O)c3ccccc3)CC2)nc1	-3%	/	/	0%	/	-17%	?	/
CCOC(=O)NC(CC(=O)O)c1ccc(OC)cc1 (stereo not drawn)	7%	-6%	3.2%	-6%	1%	1%	-15%	5%
COc1cccc(CN(C)C(=O)CSc2nc3ccccc3[nH]2)c1OC	-5%	26%[46.1 µM]	/	0%	/	-22%	9%	7%[46.1 µM]
CCC1CCC(c2nnc(-c3ccc(Br)cc3)o2)CC1 (stereo not drawn)	-2%	7%	-4.3%	7%	-7%	27%	32%[activator]	?
COc1c(Cl)cc(Cl)cc1CNCc1ccccc1	2%	4%	/	1%	/	-12%	-1%	0%
CCN(CC)C(=O)Cn1c(=O)n(-c2ccc(Cl)c(Cl)c2)c(=O)c2c(C)c(C(=O)N(CC)CC)sc21	/	15%[46.1 µM]	1.6%	/	?	/	8%	/
CC(C)CCN1C(=O)c2ccc(C(=O)NCc3ccccn3)cc2C1=O	/	?	/	4%	/	-16%	0%	1%
CCc1ccc(OC(C)C(=O)N2CCC(c3nc4ccccc4s3)CC2)cc1 (stereo not drawn)	/	13%[46.1 µM]	-13%	/	?	/	?	-14%[46.1 µM]
COc1cccc(CN2CCNC(=O)C2CC(=O)NCC(C)(C)N2CCOCC2)c1OC (stereo not drawn)	0%	15%	/	2%	/	5%	-16%	7%
Cc1ccccc1COC(=O)CCCC1=NS(=O)(=O)c2ccccc2N1	-9%	12%[46.1 µM]	/	-1%	/	3%	7%	4%[46.1 µM]
Cc1ccccc1N1C(=O)C(Cl)=C(N2CCCCCC2)C1=O	-32%	1%	-7.1%	-7%	-2%	?	?	?
O=C(CN1C(=O)CC(c2ccco2)Sc2ccccc21)NCC1CCCO1 (stereo not drawn)	5%	0%	0.8%	-5%	14%	-15%	7%	?
CCOC(=O)C(C)n1ncn2cccc2c1=O (stereo not drawn)	11%	19%	6.1%	1%	-1%	16%	-9%	-3%
COCCn1cnnc1SCC(=O)Nc1cccc(S(=O)(=O)N2CCCCCC2)c1	5%	13%	-2.6%	?	4%	-5%	3%	12%
CCOC(=O)c1sc(-c2ccc(F)cc2)cc1NC(=O)Nc1ccccc1OC	2%	4%	-4.6%	-10%	?	-26%	-23%	?
Cc1ccc(C(=O)C2Oc3ccccc3C3CC(c4ccc(C)cc4)=NN23)cc1 (stereo not drawn)	3%	-2%	-3.9%	-12%	?	-10%	40%[activator]	?
Cc1ccc(C(=O)C[n+]2ccc(Cc3ccccc3)cc2)cc1	/	?	/	-1%	/	2%	-17%	?
Cc1ccc(S(=O)(=O)N2CCCN(S(=O)(=O)c3ccc4c(c3)OCCO4)CC2)cc1	1%	?	1.6%	-2%	6%	-10%	?	1%&10%
Cc1cc(OCC(=O)NC(Cc2ccc(Cl)cc2)C(=O)O)c2c3c(c(=O)oc2c1)CCCC3 (stereo not drawn)	3.2µM*	/	/	8%	/	5%	-13%	/
COCCCNC(=O)CSc1nc(-c2ccc(OC)cc2)[nH]c1-c1ccc(OC)cc1	/	6%[46.1 µM]	-7.0%	/	-4%	/	-7%	4%[46.1 µM]
CC1(C)CC(=O)c2sc(NC(=O)c3ccco3)nc2C1	-157%	/	-5.8%	-15%	-2%	-21%	16%	/
O=C(Nc1ccc2c(c1)C(=O)N(CC1CCCO1)C2=O)c1cccc(Br)c1 (stereo not drawn)	-1%	?	-7.0%	-1%	0%	7%[3.69 µM]	-7%	23%
CCOc1cc(CNCCSc2nnnn2C)cc(Cl)c1OCc1ccc(Cl)cc1	/	-8%[46.1 µM]	-8.2%	/	29%	/	?	?
COc1cc(/C=C/C(=O)O)cc(S(=O)(=O)N(CC(C)C)CC(C)C)c1OC	/	-17%	/	-1%	/	?	2%	-13%[46.1 µM]
Cc1ccccc1N(C)S(=O)(=O)c1nnc(NC(=O)C(C)C)s1	/	10%[46.1 µM]	-1.8%	/	1%	/	4%	/
CC(/C=C1\SC(=Nc2cccnc2)NC1=O)=C\c1ccccc1	-3%	?	/	0%	/	-27%	-8%	?
COc1ccccc1S(=O)(=O)Cc1ccc(C(=O)N2CCN(c3ccc(C)cc3)C(C)C2)o1 (stereo not drawn)	-26%	/	-1.5%	0%	?	0%	32µM*	6%
COc1ccc(Cl)cc1NC(=O)CN(C)S(=O)(=O)c1ccc2c(c1)CCCN2C(C)=O	/	-16%[46.1 µM]	-3.7%	/	?	/	?	/
Cc1ccccc1NC(=O)CCc1c(C)nc2c(c1C)c(=O)n(C)c(=O)n2C	/	?	-1.0%	/	1%	/	-18%	-16%[46.1 µM]
COCCn1c(=S)[nH]c2cc(C(=O)N3CCN(c4ccccc4OC)CC3)ccc2c1=O	-29%	-3%	-3.5%	-1%	?	-10%	-20%	-2%
CCC(=O)Oc1ccc(NC(=O)CSCc2ccccc2)cc1	-9%	/	/	0%	/	41%	63%[activator]	/
O=C(CN1CCN(C(=O)c2ccco2)CC1)Nc1ccccc1-c1ccccc1	-36%	-29%	-0.8%	0%	-3%	0%	?	?
N=C1/C(=C/c2cccs2)C(=O)N=C2SN=C(SCc3ccccc3)N12	19%	-1%	?	-6%	-23%	-18%	2%	-3%
Cc1nn(CC(C)C)c(Cl)c1C(=O)NC1CCCCC1	/	5%[46.1 µM]	/	-1%	/	1%	33%[activator]	24%
CCCN1C(=O)S/C(=C\c2ccc(N3CCOCC3)o2)C1=O	/	4%	/	-1%	/	-13%	4%	-27%[46.1 µM]
Cc1nnc(Nc2ccc(C(=O)N3CCOCC3)cc2)c2ccccc12	-5%	?	4.2%	-1%	0%	-12%	13%	12%
COc1cc(OC)cc(C(=O)N[C@H](C(=O)OCC(=O)Nc2ccc(F)c(F)c2)C(C)C)c1	-24%	4%	-16%	-39%	-12%	?	-12%	-1%
O=C(c1sc2cc([N+](=O)[O-])ccc2c1Cl)N1CCOCC1	-15%	-6%	-4.4%	-15%	3%	-4%	-23%	-13%
CCn1c(C)nnc1SCC(=O)Nc1cccc(Cl)c1	-46%	/	/	12%	/	-10%	4%	/
CCc1ccc(S(=O)(=O)N(C(=O)Oc2ccccc2)c2ccc3oc(C)c(C(=O)OC)c3c2)cc1	/	?	-2.4%	/	?	/	-14%	/
COC(=O)COc1ccc(S(=O)(=O)Nc2ccc(C(N)=O)cc2)cc1Cl	2%	1%	3.2%	1%	-5%	21%	25%	21%
COc1ccc(C2=NC(C)(C)N(CC(=O)Nc3ccc(F)c(F)c3)C2=O)cc1	/	8%[46.1 µM]	-4.7%	/	-4%	/	-21%	-20%[46.1 µM]
COC(=O)c1[nH]c2ccccc2c1NC(=O)CCN1CCSCC1	-13%	-2%	3.2%	1%	9%	6%	11%	2%[46.1 µM]
COc1ccc(Nc2ncnc3c2cnn3Cc2ccccc2)cc1OC	-43%	?	-12%	2%	-1%	4%	/	?
O=C(Nc1cc(-c2nn(CC(=O)N3CCCCC3)c(=O)c3ccccc23)ccc1N1CCOCC1)c1ccc(Cl)cc1	15%	3%	4.4%	0%	?	2%	12%	2%
Cc1ccc2cc(COC(=O)c3ccco3)c(=O)[nH]c2c1	6%	-4%	-8.9%	-14%	?	-11%	-11%	2%
CC(C)NC(=O)COC(=O)/C=C/c1ccco1	23%	7%	-3.0%	-6%	-4%	-11%	14%	?
Cc1sc(-n2c(C)cc(C=C3C(=O)NC(=O)NC3=O)c2C)c(C#N)c1C	14%	?	-4.7%	12%	?	8%	-21%	?
CCc1ccccc1NS(=O)(=O)c1ccc(-c2coc(C)n2)cc1	/	?	-3.2%	/	-6%	/	-28%	/
The listing continues.
SMILES	NS1 inh	LASV entry inh	Cruzain Triton	SARS PLpro yeast	Cruzain inh noDet	RE007 growth inh	StopGo reporter	MARV entry inh
COc1ccc(CCNC(=O)c2cnc3sc(N4CCC(C)CC4)nn3c2=O)cc1OC	/	11%[46.1 µM]	2.1%	/	-5%	/	?	/
CCOCc1nnc(NC(=O)c2cccs2)s1	-18%	-12%	-1.5%	-5%	-11%	-7%	29%	20%
COc1ccc(N2CCN(CCCNC(=O)C(=O)c3c(C)[nH]c4ccccc34)CC2)cc1	3%	?	/	1%	/	-11%	-11%	-21%[46.1 µM]
COCCNC(=O)c1ccccc1N(Cc1ccccc1)S(=O)(=O)c1ccc(C)cc1	1%	?	/	0%	/	1%	18%	?
O=C(COC(=O)c1cc(=O)[nH]c2ccccc12)Nc1ccc(F)cc1F	/	1%	/	-5%	/	15%	6%	23%
COc1ccc(OC)c(-n2c(O)c(C=NCCN3CCNCC3)c(=O)[nH]c2=S)c1	10%	/	/	0%	/	8%	-19%	/
CC(C)[C@H](N)C(=O)NC[C@H](CC(=O)NC[C@H]1CC[C@H](C(=O)O)CC1)c1ccc(Cl)cc1	0%	/	/	1%	/	-3%	2%	/
COc1ccc(-c2ccn(-c3cccc(F)n3)n2)cc1	15%	?	/	-3%	/	-16%	20%	10µM*
CCSc1nc2c(c(=O)[nH]c(=O)n2C)n1Cc1ccc(Cl)cc1	1%	3%	4.8%	3%	-13%	-11%	?	?
O=C(CCN1CCN(CCO)CC1)Nc1ccc(C2CCCC2)cc1	5%	/	/	0%	/	2%	8%	/
COc1cc(/C=C2/SC(=Nc3ccc(O)cc3)NC2=O)cc(OC)c1O	12%	?	/	-3%	/	6%	-10%	?
COc1ccc(C(=O)NCCc2nnc3ccc(SCC(=O)Nc4ccccc4)nn23)cc1	-61%	-1%	/	-9%	/	-2%	-14%	14%
Cc1cc2c(c(=O)n1CCN(C)C)C(c1ccccc1Br)C(C#N)=C(N)O2 (stereo not drawn)	8%	-9%	2.7%	20%	-4%	-13%	-13%	8%
